Source: PubChem
MgrA-DNA mod = S. aureus MgrA activity modulators, primary screen, biochemical, S. aureus Newman, fluorescence polarization; MgrA-DNA binding; inhibition, %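 (about 10 µg/mL by stock and volumes)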; 0.13% of 84,000 active;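 active means above 50% in either of two replicates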;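 further: 0% = protein plus DNA without compound and 100% = DNA alone without protein; higher means less MgrA bound to DNA so lower polarization; one replicate is shown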
S aureus helic = inhibitors of S. aureus replicative helicase, primary screen, biochemical, fluorescence unwinding readout; replicative DNA helicase (DnaC/DnaB), Staphylococcus aureus; purified S. aureus helicase, fluorescence unwinding assay; about half of the hits fall short of the stated cut; inhibition, %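 (tested at about 80 µM)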; 0.05% of 120,000 active;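 active means both duplicates at 50% or more, or one of them with a favoured structure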;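 further: 0% = mean of negative control wells and 100% = mean of positive control wells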
* = called active by the depositor; x = no result given. The list is partial. The share of hits here may be higher or lower than overall.

Compound	MgrA-DNA mod	S aureus helic
CCCCNC(=O)c1cccc2c1C(=O)N(CCC)C2	x	17
O=C(Nc1nccs1)c1cc(=O)[nH]c2ccccc12	0.2	23
CN(Cc1ccco1)C(=O)C1=Cc2sc3c(c2CS1)CCCC3	x	-3
O=C(c1ccc2c(c1)C(=O)N(CCCO)C2=O)c1ccc2c(c1)C(=O)N(CCCO)C2=O	-0.8	9
CSc1nc2c(c(=O)[nH]1)C(c1ccc(F)cc1F)CC(=O)N2 (stereo not drawn)	x	20
O=C(CC1S/C(=N/N=C2\CSC(=O)N2)NC1=O)Nc1ccccc1 (stereo not drawn)	x	10
CS(=O)(=O)N1CCN(c2ccc(NC(=O)CSc3nnc(Cc4ccccc4)o3)cc2)CC1	-1.5	12
CC(C)CC(=O)N(c1nnc(-c2cccnc2)s1)C1CCCC1	-2.0	10
O=C(CCN1C(=O)NC2(CCCC2)C1=O)Nc1ccc(S(=O)(=O)N2CCCCC2)cc1	x	-11
CC(C)N1C(=O)c2ccccc2CC1(C)C(=O)NC1CCCCCC1 (stereo not drawn)	x	-2
CCC(c1nnc(SCC(=O)N2CCOCC2)o1)N(C)C (stereo not drawn)	x	-1
CC(C)(C)N1CC(C(=O)O)CC1=O (stereo not drawn)	-0.3	-1
CSc1nnc(SCCS(=O)(=O)c2ccc(Cl)cc2)s1	2.9	x
CC(C)(C)c1cc(C(F)(F)F)nc(SCCNC(=O)c2cnn3cccnc23)n1	0.4	2
CCCCN1C(=O)CS/C1=C(/C#N)C(=O)Nc1cccc(OC)c1	x	13
CCOC(=O)c1sc(N)c(C(=O)OCC)c1CSc1nnc2n1CCCCC2	x	-13
CCc1ccc(N2CC(O)(c3ccccc3)[N+]3=C2CCCC3)cc1 (stereo not drawn)	1.1	7
COc1ccc2[nH]c3c(=O)n(CCC(=O)NCCc4ccc(OC)c(OC)c4)c(=S)[nH]c3c2c1	0.5	17
FC(F)Oc1ccc(NC(=S)NNc2nc3ccccc3[nH]2)cc1	x	3
O=C(c1cccc(-n2cnnn2)c1)N1CCCC(c2nc3ccccc3s2)C1 (stereo not drawn)	x	15
COC(=O)c1ccc(CSc2nc3ccccc3c(=O)n2-c2ccccc2)o1	x	3
CSc1ncc(Cl)c(C(=O)N(Cc2ccccc2)Cc2ccco2)n1	x	-19
COc1cccc(NC(=O)c2cc3c(s2)-c2c(C)cccc2OC3)c1	0.9	1
COC(=S)Nc1ccccc1	1.5	x
C/C=C/C1OC23CCCCC2C(C#N)(C(=N)O3)C1(C#N)C#N (stereo not drawn)	3.2	6
CCOC(=O)COc1ccccc1/C=C(/C#N)S(=O)(=O)c1ccccc1	0.2	x
CC1CC(C)CN(S(=O)(=O)c2ccc(C(=O)Nc3ccccc3-c3nc4ccccc4[nH]3)cc2)C1 (stereo not drawn)	2.9	x
CC(C)CN(C1CCS(=O)(=O)C1)S(=O)(=O)c1cccs1 (stereo not drawn)	x	1
CCOC(=O)c1ccc2c(c1)C1C=CCC1C(c1ccc(F)cc1)N2 (stereo not drawn)	-1.1	x
O=C(CCCC(=O)c1ccccc1)c1ccccc1	-2.2	x
N/C(=N\OC(=O)CCn1c(=O)oc2ccccc21)c1ccc(Cl)cc1	x	6
O=C(O)C1c2ccccc2Oc2ccccc21	-2.3	x
Cc1cc(OCC(=O)OCC(=O)Nc2ccc(F)cc2)no1	x	12
COc1ccc(NC(=O)CSc2nnc3ccccn23)cc1	x	-8
CC1(C)CC(=O)c2cc(C(=O)Nc3cccc(O)c3)c(=O)[nH]c2C1	x	18
N#CCC(=O)N1CCN(C=O)CC1	x	-2

Entries of single compounds, quoted from the list:
`O=C(CCCC(=O)c1ccccc1)c1ccccc1` is listed as MgrA-DNA mod: -2.2; S aureus helic: x
`Cc1cc(OCC(=O)OCC(=O)Nc2ccc(F)cc2)no1` is listed as MgrA-DNA mod: x; S aureus helic: 12
`COc1ccc(NC(=O)CSc2nnc3ccccn23)cc1` is listed as MgrA-DNA mod: x; S aureus helic: -8

Retrieved by structure from the list above:
Compound	MgrA-DNA mod	S aureus helic
CC(C)CN(C1CCS(=O)(=O)C1)S(=O)(=O)c1cccs1 (stereo not drawn)	x	1
Cc1cc(OCC(=O)OCC(=O)Nc2ccc(F)cc2)no1	x	12
O=C(CCCC(=O)c1ccccc1)c1ccccc1	-2.2	x
CC1CC(C)CN(S(=O)(=O)c2ccc(C(=O)Nc3ccccc3-c3nc4ccccc4[nH]3)cc2)C1 (stereo not drawn)	2.9	x
COc1ccc(NC(=O)CSc2nnc3ccccn23)cc1	x	-8

(continued)
Compound	MgrA-DNA mod	S aureus helic
COC(=O)c1ccc(CSc2n[nH]c(=O)[nH]c2=O)cc1	x	-5
Cc1ccsc1/C=C/C(=O)NCC(=O)O	2.1	11
O=c1n(-c2ccccc2)c(=O)n2n1CCCC2	x	13
COc1ccc(Cl)cc1-c1nc(SCC(=O)N(CC(C)C)C2CCS(=O)(=O)C2)n[nH]1 (stereo not drawn)	x	2
COc1ccc(CCNc2oc(-c3ccc(C)cc3)nc2C#N)cc1OC	-1.2	3
CN(CC(=O)NCc1cccs1)S(=O)(=O)c1cccc2cccnc12	-0.7	2
CC1=NN(c2cccc(Br)c2)C(=O)/C1=C\c1ccc(-c2cccc([N+](=O)[O-])c2)o1	-1.0	x
O=C(O)CSCC(=O)Nc1ccc(-c2cn3ccsc3n2)cc1	x	11
COc1cc2c3c(c1OC)C1(C=CC(=O)C=C1)CC3N(C)CC2 (stereo not drawn)	x	0
CCOC(=O)C1=C(C)OC(N)=C(C#N)C1C1CCCCC1 (stereo not drawn)	-1.5	10
Cc1ccc(NC(=O)Cc2nc(CN3CCCC3c3cccs3)cs2)cc1 (stereo not drawn)	x	-21
NC(=O)c1ccsc1NC(=O)Cc1ccc(S(=O)(=O)N2CCOCC2)s1	x	-9
CSc1nc(C=Nc2cccc(Cl)c2)c(O)n1Cc1cccc(Cl)c1	-1.7	x
CCOc1ccc(-c2cc(C(=O)N3CCCCC3C)[nH]n2)cc1 (stereo not drawn)	x	-14
Cn1cc(Br)cc(Br)c1=O	x	-11
COc1ccc(N=C(NC#N)Oc2ccccc2)cc1	0.3	x
Cc1cc(C(=O)N(CCC#N)Cc2ccccc2)no1	-0.2	x
CCC(=O)OCC(=O)C1(OC(=O)CC)[C@H](C)C[C@H]2[C@H]3[C@H]([C@@H](O)C[C@@]21C)[C@@]1(C)C=CC(=O)C=C1C[C@H]3Cl (stereo partly drawn)	2.4	x
CCOC(=O)C1CCN(C(=O)c2cccc(C(=O)N3CCC(C(=O)OCC)CC3)c2)CC1	-1.1	20
COC(=O)c1cc(CSc2nnc(Nc3ccc(C)cc3C)s2)oc1C	x	-14
CS(=O)(=O)Nc1ccc2[nH]c(=O)[nH]c2c1	x	3
CCOc1ccccc1CNC(=O)CCSCc1ccccc1Cl	x	-9
CC(=O)Nc1ccc(C=Nc2ccc(C(C)C)cc2)cc1	-3.4	x
CC1=CC(C)(C)Nc2ccc(OC(=O)c3ccco3)cc21	-1.9	8
S=c1[nH]ncn1/N=C/c1ccccc1	10	-7
CC(=O)NC1(NC(C)=O)CC(c2ccccc2)N(C)CC1C (stereo not drawn)	0.8	6
Cc1ccc(CCSCC(=O)O)cn1	-7.0	4
O=C(NCCC(c1ccccc1)c1ccccc1)c1cnc2ccccn2c1=O	-1.1	13
COC(=O)c1sc(-c2ccc(Cl)cc2)nc1C	-0.6	x
CCOc1ccccc1N(C)C(=O)COc1cc(=O)n(C)c2ccccc12	1.4	4
CCCCC/C=C\C/C=C\C/C=C\C/C=C\CCCC(=O)O[C@@H](CO)COC(=O)CCCCCCCCCCCCCCCCC	-1.5	x
CC1=N/C(=C/c2ccccc2)C(=O)O1	x	32
O=C(c1cccnc1)N1N=C2CCCCC2C1(O)C(F)(F)F (stereo not drawn)	x	-5
CCCCC(=O)Nc1sc2c(c1C(N)=O)CCC2	-1.0	11
COc1ccc(-c2c3c(nc4c(C#N)c(C)n(-c5ccccc5)c24)CCC3)cc1	0.6	0
O=C(Oc1ccccc1)c1ccccc1F	x	11
Cc1cc(C(=O)NCc2ccc(S(N)(=O)=O)cc2)c(C)o1	x	-4
Cc1cc(-c2csc(NC(=O)C3CC3)n2)c(C)n1-c1ccc(F)cc1	x	-10
Fc1cc2c(c(CSc3nc4ccccc4[nH]3)c1)OCOC2	-2.3	x
CSc1nc(N)n(-c2ncccc2C(F)(F)F)n1	x	-23
Cc1cc(C)c2c(N)nsc2n1	x	-16
CN1/C(=C\C=N\NS(=O)(=O)c2ccccc2)C(C)(C)c2ccccc21	x	-24
CC(C)CCNC(=O)c1cc(=O)c2ccccc2[nH]1	x	-11
O=C1CCC(C(=O)N(CC2CCCO2)C2CCS(=O)(=O)C2)=NN1c1c(F)c(F)cc(F)c1F (stereo not drawn)	x	-10
C/C(=C\C(=O)C(F)(F)F)NCc1ccco1	x	3
CCc1ccc2[nH]c(C(=O)Nc3ccc(C(F)(F)F)c(C#N)c3)cc2c1	-0.3	x
CS(=O)(=O)c1cc2ccccc2nc1N	-0.8	x
N#CC1=C(N)Oc2cc(N)ccc2C12C(=O)Nc1ccccc12 (stereo not drawn)	1.8	x
Cc1ccc(C(CC(=O)N2CCCC2)c2ccccc2)c(O)c1 (stereo not drawn)	x	2
Cc1ccc(NC(=O)c2c(-c3ccccc3)nnc3ccccc23)cc1F	-3.4	x
FC(F)(F)c1cccc(Cn2c(-c3cscn3)nc3ccccc32)c1	-0.7	7
Cn1c(=O)n(CC(=O)O)c(=O)c2c1nc1n2CCN1c1ccc(Cl)cc1	x	18
CCN1CCN(C(=O)CCCn2c(=O)[nH]c3cc(Cl)ccc3c2=O)CC1	x	-13
CC(NC(N)=O)C(=O)N1CC=C(c2ccccc2)CC1 (stereo not drawn)	x	9
Cn1c(SC/C=C/c2ccccc2)nc2sc3c(c2c1=O)CCCC3	-0.5	-12
CC(C)CN1C(=O)c2ccccc2C(C(=O)NCc2cccs2)C1c1cccs1 (stereo not drawn)	x	2
O=C(O)c1ccccc1N(Cc1ccccc1)C(=O)c1ccco1	-6.8	-19
Cc1ccc(-n2cccn2)cc1	-0.5	-4
COC(CNC(=O)c1ccc(/C=C2\Oc3ccccc3N(Cc3cccc(F)c3)C2=O)cc1)OC	1.7	6
CC1=C(O)C(=O)OC1c1c(Cl)cccc1Cl (stereo not drawn)	-2.5	x

(more compounds)
Compound	MgrA-DNA mod	S aureus helic
CC1=C(C(=O)Nc2ccc(F)cc2)C(c2ccc(F)cc2)C2=C(CC(c3ccccc3)CC2=O)N1 (stereo not drawn)	1.1	16
O=C(O)c1cccc(NC(=O)c2ccco2)c1	-3.5	x
CCN(c1ccccc1)S(C)(=O)=O	3.0	20
CCOC(=O)c1sc2nc(SCC(=O)C(C)(C)C)n(N)c(=O)c2c1C	-0.5	-10
CCn1c(SCC(=O)N/N=C/c2ccccc2)nnc1-c1ccccc1	x	18
Cc1csc(SC(C)C(=O)Nc2ccccc2C)n1 (stereo not drawn)	x	-7
COc1cc(C=C2C(=O)NC(=O)NC2=O)cc(Cl)c1OCCOc1ccc(C)cc1	12	x
CS(=O)(=O)Nc1cc(Br)c(O)c(Br)c1	x	-23
Cc1cccc(S(=O)(=O)NCc2cn3cccc(C)c3n2)c1	x	9
CCOC(=O)c1cnc2c(OC)cccc2c1NCCc1ccc(OC)c(OC)c1	x	42
NC(=O)c1n[nH]c(=O)c2ccccc12	x	13
CC(C)Nc1ncnc2c1cnn2-c1ccccc1	x	20
CCC(=O)Oc1ccc2c(C)cc(=O)oc2c1C(=O)CC	x	-9
N#CC(C#N)=Cc1ccc(-c2cccc(C(=O)O)c2)o1	14	12
O=C1Nc2ccccc2C1Cc1ccccc1 (stereo not drawn)	2.2	x
COc1cc2cccc(OC)c(=O)c2c(OC)c1OC	x	8
CN1C(=O)C2C=CC=CC2N=C1SCc1ccccc1F (stereo not drawn)	-0.3	2
COC(CNC(=O)c1cccc(N2CCCC2=O)c1)OC	2.0	8
CC1=C(C#N)C(=O)N(C)C(C)(C)C1	31	-16
O=C1NC(=O)C(=Cc2ccc(-c3ccccc3)o2)C(=O)N1	33	3
CC(C)(C)C(=O)N(CN1C(=O)c2ccccc2C1=O)c1cccc(F)c1	x	12
NC(=O)c1ccccc1NC(=O)COC(=O)CC1CCCC1	2.1	2
Cc1ccc2nc(SC3CCCC3)nc(=O)n2c1	x	-7
CSC1=NC2C(N1)N(C)C(=O)N2C (stereo not drawn)	-2.1	-2
CCC1=C(C(=O)OC)C(c2ccc(Br)cc2)n2ncnc2N1 (stereo not drawn)	-2.4	-3
CSc1nc(NS(=O)(=O)c2ccc(F)cc2F)nn1C	-1.2	x
COc1ccc(CN(C)C(=O)c2ccc(C)cc2O)c(OC)c1	x	-10
O=c1[nH]c2ccc(N=Cc3ccc(O)cc3)cc2[nH]1	3.4	15
O=C1CCC(C(=O)O)=NN1	x	7
Clc1ccc(N=C2SCCS2)cc1	4.8	x
CCc1ccccc1NC(=O)C(CC)CC	1.1	-6
CC1/C(=N/O)CC(c2ccco2)NC1c1ccco1 (stereo not drawn)	0.8	4
